# Screens from PubChem.
# KCNQ2 enhance – enhances the rat KCNQ2 potassium channel; O88943; CHO-K1 KCNQ2, FluxOR thallium flux fluorescence; active compounds read high; B-score at 10 µM; 310,000 compounds, 0.54% hits; AID 2239;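 active = fluorescence ratio B-score at least 3 SD of library B-scores, with initial fluorescence B-score within 3 SD, cut at about 5.3 in these data; same plate scores as AID 2156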;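 also: B-score of peak minus minimum over baseline fluorescence ratio after K+ and Tl+ stimulus; positive B-score means potentiation of KCNQ2 with more thallium influx and brighter signal; only the inactives scoring about 0 or higher are listed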
# Target sequence (O88943 whole entry, looked up): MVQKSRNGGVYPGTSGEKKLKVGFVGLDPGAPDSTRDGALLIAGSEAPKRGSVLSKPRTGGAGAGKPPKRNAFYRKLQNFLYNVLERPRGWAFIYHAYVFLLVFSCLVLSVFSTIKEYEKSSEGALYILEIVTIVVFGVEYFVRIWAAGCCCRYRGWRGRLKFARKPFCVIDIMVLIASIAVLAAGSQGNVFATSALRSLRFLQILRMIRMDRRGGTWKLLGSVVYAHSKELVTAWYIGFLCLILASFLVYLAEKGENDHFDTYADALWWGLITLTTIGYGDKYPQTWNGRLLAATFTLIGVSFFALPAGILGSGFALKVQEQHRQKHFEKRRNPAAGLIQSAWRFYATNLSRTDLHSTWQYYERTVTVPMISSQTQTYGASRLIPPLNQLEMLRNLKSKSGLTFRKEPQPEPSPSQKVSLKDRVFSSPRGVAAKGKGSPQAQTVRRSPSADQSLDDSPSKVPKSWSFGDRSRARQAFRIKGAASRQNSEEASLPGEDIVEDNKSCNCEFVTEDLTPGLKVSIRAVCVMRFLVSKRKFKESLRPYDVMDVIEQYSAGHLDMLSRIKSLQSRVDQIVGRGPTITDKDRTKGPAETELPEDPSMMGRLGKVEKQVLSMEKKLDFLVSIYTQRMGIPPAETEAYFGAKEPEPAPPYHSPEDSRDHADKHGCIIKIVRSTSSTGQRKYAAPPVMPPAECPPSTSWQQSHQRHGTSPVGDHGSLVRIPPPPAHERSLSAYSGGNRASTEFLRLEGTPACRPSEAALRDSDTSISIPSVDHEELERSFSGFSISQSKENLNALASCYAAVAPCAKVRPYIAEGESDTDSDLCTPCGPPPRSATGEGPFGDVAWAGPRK
# KCNQ2 enhance baseline – second read-out of KCNQ2 enhance, no call of its own (marks repeat the call); B-score; compound at 10 µM; measured here: initial fluorescence intensity artifact check;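 brightness before thallium and not channel activity; 0 = typical well and far values either way flag optical interference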
# Starred values were filed as active, the others as inactive. This is a subset; the hit share may differ from the screen's.
SMILES,KCNQ2 enhance,KCNQ2 enhance baseline
COc1ccc(CNC(=O)Cn2cccc2C(=O)c2ccccc2C)cc1,0.47,2.3
CCC1SC(N)=NC1=O (stereo not given),0.42,-0.57
Cc1ccc(OCC(=O)Nc2ccccc2F)cc1,0.05,0.44
CC(Cc1ccccc1)NC(=O)c1ccc([N+](=O)[O-])cc1 (stereo not given),1.61,0.36
COc1cc(OC)c(C(=O)OCC(=O)NC2CCCC2)cc1OC,0.4,-1.17
O=C(COC(=O)C1CC(=O)N(Cc2ccccc2)C1)Nc1ccc2c(c1)OCO2 (stereo not given),0.57,1.71
O=C(O)COc1ccccc1C(Nc1ccccn1)c1cc(Cl)c2cccnc2c1O (stereo not given),1.6,-0.87
COc1ccc([N+](=O)[O-])cc1N(CC(=O)N1CCOCC1)S(C)(=O)=O,1.25,-0.4
CCc1c(C)sc(NC(=O)/C=C/c2ccc3c(c2)OCO3)c1C(=O)OC,0.16,-0.02
CC(C)(CNc1ccc(C(F)(F)F)cc1[N+](=O)[O-])N1CCOCC1,0.8,1.14
COc1ccc(NC(=O)C(=O)NNC(=O)c2cccs2)cc1,3.28,0.09
CC1CCN(S(=O)(=O)c2ccc(NC(=O)Cc3ccc(S(=O)(=O)N4CCOCC4)s3)cc2)CC1,0.74,-0.04
COc1ccccc1NC(=O)C(C)NS(=O)(=O)c1ccc(F)cc1 (stereo not given),0.5,-0.27
CCN(Cc1ccccc1)C(=O)C1CCN(Cc2ccc(SC)cc2)CC1,0.14,1.02
O=C1CCc2nc3ccccc3c(=O)n2N1,0.3,-0.35
c1ccc(-c2nc3c([nH]2)CCc2nonc2-3)cc1,0.21,2.14
CN1CCN(C(=O)c2ccc(-c3ccccc3)cc2)CC1,0.05,-0.91
OCCCNc1nc(-c2ccccc2)c2cc(Br)ccc2n1,0.38,2.09
C=CCNC(=O)c1ccc2c3n(nc2c1)-c1ccccc1CO3,1.76,-0.05
Cc1nn(-c2cccc(C(F)(F)F)c2)c(Cl)c1/C=N/Nc1cccc(C(=O)O)c1,9.87*,-0.02*
COc1cc(Cc2nc3ccc(S(=O)(=O)N4CCOCC4)cc3[nH]2)cc(OC)c1OC,0.72,0.09
CCN(CC)CCCn1c(=S)[nH]c2ccc(Cl)cc2c1=O,0.42,-0.99
CCCc1cc(=O)c2ccc(OC/C(C)=N/O)cc2o1,0.55,-0.28
COc1ccc(C(=O)N/N=C/c2cn[nH]c2-c2ccc(OC)cc2OC)cc1,0.46,-0.07
Cc1cc(C)n2nc(SCc3nnc(SCCCCl)o3)nc2n1,1.76,1.08
# (listing goes on)
SMILES,KCNQ2 enhance,KCNQ2 enhance baseline
COC(=O)Nc1ccc(N2CCOCC2)c(S(=O)(=O)N2CCOCC2)c1,0.52,0.05
CC1CN(C(=O)CSc2ncnc3sccc23)CC(C)O1 (stereo not given),0.2,0
CC(=O)c1c(NCCc2ccccc2)cc(C)oc1=O,1.24,-0.93
COc1ccc(C(=O)NN2CC(O)=C(c3nc4ccccc4n3C)C2=N)cc1OC,1.68,0.71
CCc1nnc(NC(=O)CSc2nnc(CNc3cccc(Cl)c3)n2CC)s1,0.52,0.01
COc1ccc(C(=O)C2CCCN(C(=O)c3cccnc3OC)C2)c(C)c1 (stereo not given),1.09,0.19
COc1ccccc1N(C(=O)CCl)c1cn(C(C)=O)c2ccccc12,0.04,1.24
CC(C)CC(=O)N1CCC(O)(CS(=O)(=O)Cc2ccccc2Cl)CC1,1.95,1.01
CSc1cc(C)c(OCC(=O)Nc2c(C)nn(C)c2C)c(C)c1,0.57,-0.09
S=C(c1cccs1)N1CCCC1,0.5,-1.83
O=C1CCC(C(=O)O)N1 (stereo not given),0.63,-0.6
Cc1ccc(NC(=O)C2CC(=O)N/C(=N/NC(=O)c3ccc(C)cc3)S2)cc1 (stereo not given),0.02,0.36
COc1ccc(-c2noc(CNC(=O)c3ccoc3C)n2)cc1,1.88,0.92
CCNC(=O)NC(=O)CN(C)c1ccccc1,0.48,0.43
CCCCN(CC)CCCNC(=O)CC1Nc2ccccc2NC1=O (stereo not given),0.53,-0.1
CCc1nn2c(=O)cc(COc3ccc(NC(=O)c4ccco4)cc3)nc2s1,1.56,4.19
O=C(Nc1ccccc1)N1CCCN(c2ccc(C(F)(F)F)cn2)CC1,0.26,1.23
COc1ccc(-c2noc(C(C)n3nc(C)c([N+](=O)[O-])c3C)n2)cc1OC (stereo not given),1.08,-0.03
COc1cc(C(=O)N/N=C/c2sc(N3CCOCC3)nc2-c2ccccc2)cc(OC)c1OC,2.46,-0.17
CC1=C(C#N)C(NC(=O)c2ccccc2Cl)(C(F)(F)F)C(=O)N1 (stereo not given),1.02,0.29
C=CCc1ccc(OCCCCN2CC(C)CC(C)C2)c(OC)c1 (stereo not given),0.01,-1.27
C/C(=N\Nc1nnc(C)c(=O)[nH]1)C(=O)O,1.74,1.48
Cc1cc(OCC(=O)N2CCOCC2)c(C(C)C)cc1Cl,0.14,-1.5
O=C1c2ccccc2CN1CCNS(=O)(=O)c1ccc2ccccc2c1,1.26,1.57
Fc1ccc(COc2cccc(CNCc3ccncc3)c2)cc1,0.59,0.95

# Gathered by group: the compounds so far containing four or more nitrogen atoms
SMILES,KCNQ2 enhance,KCNQ2 enhance baseline
c1ccc(-c2nc3c([nH]2)CCc2nonc2-3)cc1,0.21,2.14
Cc1nn(-c2cccc(C(F)(F)F)c2)c(Cl)c1/C=N/Nc1cccc(C(=O)O)c1,9.87*,-0.02*
COc1ccc(C(=O)N/N=C/c2cn[nH]c2-c2ccc(OC)cc2OC)cc1,0.46,-0.07
Cc1cc(C)n2nc(SCc3nnc(SCCCCl)o3)nc2n1,1.76,1.08
COc1ccc(C(=O)NN2CC(O)=C(c3nc4ccccc4n3C)C2=N)cc1OC,1.68,0.71
CCc1nnc(NC(=O)CSc2nnc(CNc3cccc(Cl)c3)n2CC)s1,0.52,0.01
Cc1ccc(NC(=O)C2CC(=O)N/C(=N/NC(=O)c3ccc(C)cc3)S2)cc1 (stereo not given),0.02,0.36
CCCCN(CC)CCCNC(=O)CC1Nc2ccccc2NC1=O (stereo not given),0.53,-0.1
CCc1nn2c(=O)cc(COc3ccc(NC(=O)c4ccco4)cc3)nc2s1,1.56,4.19
O=C(Nc1ccccc1)N1CCCN(c2ccc(C(F)(F)F)cn2)CC1,0.26,1.23
COc1ccc(-c2noc(C(C)n3nc(C)c([N+](=O)[O-])c3C)n2)cc1OC (stereo not given),1.08,-0.03
COc1cc(C(=O)N/N=C/c2sc(N3CCOCC3)nc2-c2ccccc2)cc(OC)c1OC,2.46,-0.17
C/C(=N\Nc1nnc(C)c(=O)[nH]1)C(=O)O,1.74,1.48

# New compounds follow.
SMILES,KCNQ2 enhance,KCNQ2 enhance baseline
CC(=O)N1CCN(C(=O)c2ccc(-n3c(C)ccc3C)cc2)CC1,0.31,0.26
CC(C)OP(=O)(OC(C)C)/C(C=O)=N\Nc1ccc([N+](=O)[O-])cc1,1.49,-2.17
CCCCC1CCC(C(=O)OC(C)C(=O)Nc2ccc(NC(C)=O)cc2)CC1 (stereo not given),0.04,-0.01
CCc1nc(-c2cc3ccc(C)cc3[nH]c2=O)no1,0.71,-0.93
COc1ccc(COC(=O)C2=C(C)NC(=O)NC2c2cccc(OC)c2OC)cc1 (stereo not given),0.18,-0.17
CCOC(=O)N1CCN(C2CCCN(C(=O)c3ccccc3N(C)C)C2)CC1 (stereo not given),1.56,-0.13
CC(OC(=O)Cc1n[nH]c(=O)c2ccccc12)C(=O)Nc1ccc(Cl)cn1 (stereo not given),1.19,0.04
O=C(Nc1ccc(F)cc1F)C1CCCN1S(=O)(=O)c1cccc2nsnc12 (stereo not given),0.84,1.66
Cc1cc(NC(=O)c2ccc(C)s2)n(-c2nc3ccccc3[nH]2)n1,0.28,-0.01
Nc1nnc(CC(=O)N/N=C/c2ccc(-c3ccc(Cl)cc3Cl)o2)s1,0.41,0.7
CCCCn1c(N)c(N(CC(C)C)C(=O)CSCC(=O)Nc2cccc(C)c2)c(=O)[nH]c1=O,0.24,-0.88
CC(C)OCCCNC(=O)c1cc(-c2cccnc2)nc2ccccc12,0.16,-0.35
COc1cc(N)c(Cl)cc1C(=O)OCC(=O)N1CCCC1,0.77,0.53
Cc1cccc(C(=O)NNC(=O)CCCCC(=O)NNC(=O)c2cccc(C)c2)c1,0.09,1.93
CC(=O)Nc1cccc(C(=O)/C=C/c2cccs2)c1,0.34,-0.65
Cc1cccc(C)c1NC(=O)C/C(N)=N/O,1.7,0.42
N#C/C(=C\c1ccc(OCCN2CCOCC2)cc1)C(=O)Nc1ccc(S(N)(=O)=O)cc1,0.63,-0.24
Cc1cc(/C=N/NC(=O)C(O)(c2ccccc2)c2ccccc2)c(C)n1-c1ccccc1,1.59,-1.45
CCc1nc(SCC(=O)Nc2ccc(Br)cn2)n[nH]1,1,0.55
CCOC(=O)c1c(N)sc2c1CCC(C)C2 (stereo not given),0.04,-0.09
O=C(CS(=O)(=O)Cc1ccccc1)Nc1nc2ccccc2s1,1.18,-1.98
Cc1ccc(CCC(=O)NCc2ccccc2)o1,1.26,0.54
O=S(=O)(Cc1ccccc1)NCc1cccnc1,1.72,0.72
O=C(c1ccc(S(=O)(=O)c2cccc(Cl)c2)c([N+](=O)[O-])c1)N1CCN(c2ccccn2)CC1,0.07,0.14
O=C(Nc1ccnn1C1CCN(Cc2ccc(C#CCCO)cc2)CC1)c1cccc(F)c1,0.25,1.03
# (list continues)
SMILES,KCNQ2 enhance,KCNQ2 enhance baseline
COc1ccc2c(c1)c(=O)cc(C)n2CC(=O)NCc1ccco1,1.77,-0.84
Cc1ccc(NC(=O)C(=O)NCCN2CCN(S(C)(=O)=O)CC2)cc1,1.94,0.92
NC(=O)C1=C[C@@H](c2ccc(C(F)(F)F)cc2)C[C@@H](OCCCCO)O1,0.98,0.77
CCOC(=O)N1CCN(CCC(=O)Nc2cccc(Cl)c2C)CC1,0.2,0.08
COc1ccc(Cl)cc1NC(=O)CCNS(=O)(=O)c1cccc2nonc12,0.7,0.63
Cc1ccc(C(=O)c2c3ccccc3[n+]([O-])n2CCC(N)=O)cc1,0.09,-0.64
Cc1ccc(NC2(C(F)(F)F)N=C(c3ccccc3)NC2=O)nc1 (stereo not given),1.09,-0.39
Cc1ccc(-c2cc3c(nn2)-c2ccccc2C3=O)cc1,1.79,1.26
CCC(C)C(NC(=O)c1ccccc1NC(=O)c1ccccc1)C(=O)O (stereo not given),0.38,1.14
Cc1onc(-c2ccccc2)c1CNC(=O)Nc1ccc(C(F)(F)F)cc1,0.38,-0.15
COc1ccc(C(=O)Nc2ccc3c4c(cccc24)CC3)cc1,2.9,0.3
Cc1ccsc1C1C2=C(CCCC2=O)Nc2ncnn21 (stereo not given),1.42,-0.9
COc1ccc(C2(C)NC(=O)N(CC(=O)Nc3ccc4[nH]c(=O)[nH]c4c3)C2=O)cc1 (stereo not given),0.07,0.11
COc1cc(CN2CCCC(CO)(Cc3ccccc3)C2)ccc1O (stereo not given),0.94,0.79
O=C(c1ccc(Br)s1)N1CCN(c2ccccn2)CC1,1.1,-1.22
CSC1=NSC2=NC(=O)/C(=C\c3cccs3)C(=N)N12,0.8,-1.25
CC1Cc2ccccc2N1C(=O)COC(=O)C1=COCCO1 (stereo not given),1.76,-0.15
NC(N)=NC(N)=Nc1cccc2ccccc12,0.46,0.35
Cc1cccc(C)c1OCC(=O)NC1CC1,0.33,0.07
O=C(N/N=C/c1cccc(O)c1)c1cc2c(ccc3ccccc32)o1,0.6,-1.9
O=c1[nH]c(=O)c2nc(-c3ccc(Cl)cc3)cnc2[nH]1,0.03,1.09
NC(=O)c1ccsc1NC(=O)CSc1nnc(Nc2ccccc2)s1,1.97,-1.37
CCOC(=O)c1nn(-c2ccccc2)c(=O)cc1SC(C)CC (stereo not given),1.19,-0.11
Cc1ccc(-n2nnnc2SCCNS(=O)(=O)c2ccccc2)cc1C,0.1,0.18
COc1ccc(CC(=O)OCc2cc3cccc(C)c3[nH]c2=O)cc1,0.44,0.62
# Later entries.
SMILES,KCNQ2 enhance,KCNQ2 enhance baseline
CCN(Cc1ccccc1)S(=O)(=O)c1cc(C(=O)c2c(N)n(C)c(=O)n(C)c2=O)ccc1OC,1.69,0.05
O=C(CSc1nc(C(F)(F)F)cc(=O)[nH]1)N1CCCC1,0.05,-1.01
COCCNC(=O)CCCCCn1c(=S)[nH]c2ccccc2c1=O,1.1,-2.07
COC(=O)C1=C(C(=O)OC)[C@@H]2N(Cc3ccccc3)c3ccccc3[C@@]23C[C@@H](CO)N(C(=O)NC2CCCC2)C3=N1,0.15,1.46
O=C(Nc1nnc(-c2ccco2)o1)c1cccc2ccccc12,3.88,-0.23
CCOc1ccccc1CN1CCN(Cc2cc(=O)c3ccccc3[nH]2)CC1CCO (stereo not given),0.6,-1.31
CCC(C)(C)NC(=O)CN(CC1CCCO1)C(=O)CCC(=O)Nc1nccs1 (stereo not given),1.08,2.51
O=S(=O)(/N=C/c1c(O)ccc2ccccc12)c1ccccc1,0.98,-0.91
CC(CC(=O)NCc1ccc(Cl)cc1)S(=O)(=O)c1ccc2c(c1)NC(=O)CO2 (stereo not given),1.54,-0.31
Cc1cc(CNC(=O)c2ccc(C)c([N+](=O)[O-])c2)c2ccccc2n1,0.89,0.8
CCCCNC(=O)N1CCCC(N(C)CCc2ccc(OC)c(OC)c2)C1 (stereo not given),0.22,0.75
COc1ccc(-c2[nH]c(-c3ccc(C)cc3)nc2SCC(=O)NCc2ccco2)cc1OC,0.64,0.19
CC(C)c1ccc(NC(=O)NC2CC3CCC(C2)N3Cc2cccs2)cc1 (stereo not given),0.01,-0.31
CC(Sc1nnc(-c2cccs2)n1N)C(=O)NCC1CCCO1 (stereo not given),2.09,-0.67
Cc1ccc(-c2noc(C3CCCCC3)n2)cc1,1.2,-1.93
COc1ccc(C2=NOC(COc3ccc([N+](=O)[O-])cc3)C2)cc1 (stereo not given),1.09,-0.8

# Two entries from above, field by field.
Cc1cc(NC(=O)c2ccc(C)s2)n(-c2nc3ccccc3[nH]2)n1
  KCNQ2 enhance: 0.28	KCNQ2 enhance baseline: -0.01
CCN(Cc1ccccc1)C(=O)C1CCN(Cc2ccc(SC)cc2)CC1
  KCNQ2 enhance: 0.14	KCNQ2 enhance baseline: 1.02
